Assay outcomes from PubChem.
Vaccinia inh: blocks a specific stage of Vaccinia orthopoxvirus infection; activity change (mCherry), % (test concentration not listed); 89,000 compounds, 0.01% hits; Vaccinia-infected cells, mCherry/Venus stage reporter fluorescence; hits give low values; some inactives read as strong as hits;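 active = mCherry past -33% and 40 or more points under the early reporter, replicates agreeing; inconclusive = past -33% without that gap or agreement; tested in A549 cells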;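 note: scaled between vehicle wells and reference inhibitor wells; 23 nL library stock went into each well; one replicate is shown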
Vaccinia inh Venus: recorded beside Vaccinia inh, whose call it bears; activity change (Venus), %; measured here: Venus reporter, other viral stage;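 negative = less Venus signal; first of two replicates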
* = called active by the depositor; ? = inconclusive; · = not tested or not shown.

cpd	SMILES	Vaccinia inh Venus	Vaccinia inh
1	COc1ccccc1-c1cn(CC[C@H]2CC[C@H](NC(=O)c3ccccc3F)[C@H](CO)O2)nn1	0.5	-4.8
2	Cc1noc(C)c1S(=O)(=O)N(C)C[C@@H]1Oc2ccc(NC(=O)Nc3ccc4c(c3)OCO4)cc2CC(=O)N([C@H](C)CO)C[C@H]1C	3.1	-0.4
3	COc1ccccc1S(=O)(=O)N1C[C@H](O)COC[C@@H]2O[C@H](CC(=O)O)CC[C@H]21	-2.3	0.8
4	CC(=O)N1CCCCN2[C@H](C1)[C@@H](c1ccc(-c3ccc(C)cc3)cc1)[C@@H]2CO	-18.3	-10.9
5	C[C@H](CO)N1C[C@H](C)[C@H](CN(C)S(=O)(=O)c2cccs2)Oc2c(NC(=O)Nc3ccc(F)cc3)cccc2C1=O	-19.5	-24.4
6	CN1CCN(C(=O)[C@@H]2[C@@H](CO)[C@@H]3Cn4c(ccc(-c5ccncc5)c4=O)[C@@H]3N2CC2CC2)CC1	10.4	24.9
7	C[C@H](NC(=O)[C@H]1[C@H](CO)[C@H]2Cn3c(cccc3=O)[C@H]2N1S(C)(=O)=O)c1ccccc1	6.1	4.0
8	CCNC(=O)[C@@H]1[C@@H](CO)[C@@H]2Cn3c(ccc(-c4ccccc4)c3=O)[C@H]1N2C(=O)c1ccccn1	0.7	10.3
9	Cc1noc(C)c1S(=O)(=O)Nc1ccc2c(c1)C(=O)N([C@@H](C)CO)C[C@H](C)[C@@H](CN(C)S(=O)(=O)c1cn(C)cn1)OCCCC[C@@H](C)O2	1.5	31.5
10	CO[C@H]1CN(C)C(=O)c2ccc(NS(C)(=O)=O)cc2OC[C@H](C)N(C)C[C@H]1C	-2.0	-0.9
11	Cc1noc(C)c1S(=O)(=O)Nc1ccc2c(c1)C(=O)N([C@H](C)CO)C[C@H](C)[C@@H](CN(C)C(=O)c1ccncc1)OCCCC[C@@H](C)O2	0.4	3.3
12	C[C@@H]1CN([C@H](C)CO)C(=O)c2cccc(NS(=O)(=O)c3cn(C)cn3)c2O[C@H]1CN(C)CC1CC1	18.3	16.8
13	CO[C@H]1CN(C)C(=O)c2ccc(NC(=O)C3CCCCC3)cc2OC[C@H](C)N(Cc2nccs2)C[C@H]1C	-16.1	-17.9
14	CC(C)NC(=O)Nc1ccc2c(c1)CC(=O)N([C@H](C)CO)C[C@H](C)[C@@H](CN(C)C(=O)Nc1ccc(C(F)(F)F)cc1)O2	-1.4	1.9
15	COc1cccc(NC(=O)N(C)C[C@H]2Oc3cc(/C=C/c4ccccc4)ccc3S(=O)(=O)N([C@@H](C)CO)C[C@H]2C)c1	-27.8	-34.0
16	O=C(C1CC1)N1CC(=O)N2[C@H](CO)[C@@H](c3ccc(-c4cccnc4)cc3)[C@@H]2C1	11.8	12.3
17	C[C@H]1CN([C@@H](C)CO)C(=O)c2cc(NC(=O)C3CCCCC3)ccc2O[C@@H]1CN(C)C(=O)Nc1ccc(F)cc1	5.3	12.0
18	Cc1noc(C)c1S(=O)(=O)N(C)C[C@H]1OCCCC[C@@H](C)Oc2ccc(NC(=O)C3CCCCC3)cc2C(=O)N([C@H](C)CO)C[C@H]1C	·	?
19	COc1ccc(C#Cc2ccc3c(c2)O[C@@H](CN(C)C(=O)Nc2cccc(OC)c2)[C@@H](C)CN([C@@H](C)CO)S3(=O)=O)cc1	-16.2	-13.8
20	C[C@@H]1CN([C@H](C)CO)S(=O)(=O)c2ccc(-c3cccc(C#N)c3)cc2O[C@H]1CN(C)C(=O)c1ccccc1	-13.5	-7.7
21	C[C@@H]1CCCCO[C@H](CN(C)C(=O)c2ccncc2)[C@H](C)CN([C@@H](C)CO)C(=O)c2cc(NS(=O)(=O)c3cn(C)cn3)ccc2O1	-1.4	19.1
22	C[C@@H]1CN([C@H](C)CO)C(=O)c2cc(NS(=O)(=O)c3cccs3)ccc2O[C@H]1CN(C)C(=O)Nc1ccc(C(F)(F)F)cc1	3.9	10.2
23	C=CCOC(=O)C1=C[C@H](c2ccc(Br)cc2)C[C@H](OCc2ccc(CO)cc2)O1	-24.6	-14.0
24	CCCN(C)C[C@H]1Oc2ncc(C#CC3(O)CCCC3)cc2C(=O)N([C@H](C)CO)C[C@H]1C	-0.6	3.2
25	C[C@@H]1CN([C@H](C)CO)C(=O)c2cc(C#CC3CC3)cnc2O[C@@H]1CN(C)C(=O)Nc1ccccc1	-11.7	2.7
26	C[C@H](CO)N1C[C@H](C)[C@H](CN(C)CC2CCCCC2)Oc2ccc(NC(=O)Nc3ccccc3)cc2CC1=O	-15.7	-27.4
27	C[C@H]1CN([C@@H](C)CO)C(=O)c2cc(Br)cnc2O[C@H]1CN(C)Cc1ccncc1	4.3	20.2
28	COc1ccc(NC(=O)Nc2ccc3c(c2)C(=O)N([C@@H](C)CO)C[C@H](C)[C@@H](CN(C)S(C)(=O)=O)OCCCC[C@@H](C)O3)cc1	-1.7	16.1
29	COc1ccccc1S(=O)(=O)N[C@@H]1C=C[C@H](CC(=O)NCc2cc(F)cc(F)c2)O[C@H]1CO	-7.2	-11.8
30	C[C@@H]1CN([C@@H](C)CO)C(=O)Cc2cc(NC(=O)Cn3cnnn3)ccc2O[C@@H]1CN(C)CC1CC1	4.7	10.9
31	COc1cccc(C#Cc2ccc3c(c2)O[C@H](CN(C)C(=O)CN2CCOCC2)[C@H](C)CN([C@@H](C)CO)S3(=O)=O)c1	·	?
32	N#C[C@@H]1[C@H](c2ccc(-c3ccccc3F)cc2)[C@@H](CO)N1C(=O)C1CC1	-9.7	-15.8
33	Cc1cccc(-c2ccc([C@@H]3[C@H](CO)N4CCCCN(S(=O)(=O)c5ccccc5C)C[C@@H]34)cc2)c1	-18.9	-20.6
34	N#C[C@H]1[C@@H](c2ccccc2-c2cccc(F)c2)[C@@H](CO)N1C(=O)C1CCOCC1	19.3	16.1
35	Cc1noc(C)c1S(=O)(=O)N(C)C[C@@H]1Oc2c(NC(=O)C3CCCCC3)cccc2C(=O)N([C@H](C)CO)C[C@@H]1C	-3.7	-4.4
36	C[C@@H]1CN([C@H](C)CO)C(=O)CCCn2nncc2CO[C@H]1CN(C)C	-1.9	8.7
37	CCCC#Cc1ccc([C@H]2[C@@H](CO)N3C(=O)CN(C(=O)Nc4ccc(F)cc4)C[C@@H]23)cc1	-7.5	-13.2
38	Cc1ccc(-c2ccc([C@H]3[C@H](CO)N4C(=O)CN(C(=O)Nc5ccc(F)cc5)C[C@@H]34)cc2)cc1	-29.9	-28.0
39	COc1cccc(S(=O)(=O)N2CC[C@H]3[C@@H](CO)N(C)c4ccc(C#Cc5ccc(F)cc5)cc4[C@H]32)c1	11.5	15.5
40	C[C@H](CO)N1C[C@H](C)[C@H](CN(C)C(=O)Nc2ccc(F)cc2)Oc2c(NS(=O)(=O)c3ccccc3)cccc2C1=O	-19.7	-19.4
41	C[C@@H]1CN([C@@H](C)CO)S(=O)(=O)c2ccc(-c3ccc(F)cc3)cc2O[C@@H]1CN(C)S(C)(=O)=O	-15.4	-20.7
42	C[C@H]1CN([C@@H](C)CO)C(=O)c2cc(C3=CCCCC3)cnc2O[C@@H]1CN(C)C(=O)Nc1ccc(F)cc1	-5.3	-11.9
43	C[C@H]1CN([C@@H](C)CO)S(=O)(=O)c2ccc(C3=CCCCC3)cc2O[C@@H]1CN(C)Cc1ccccn1	·	?
44	C[C@H]1CN([C@@H](C)CO)S(=O)(=O)c2ccc(-c3cccc(F)c3)cc2O[C@H]1CN(C)S(=O)(=O)c1ccc(F)cc1	·	?
45	CC(=O)N(C)C[C@H]1Oc2ncc(C#Cc3ccccc3)cc2C(=O)N([C@@H](C)CO)C[C@H]1C	10.8	11.0
46	CCCC#Cc1ccc([C@H]2[C@H]3CN(C(=O)c4ccccc4)CC(=O)N3[C@H]2CO)cc1	-9.5	-15.3
47	O=C(CN1CCOCC1)N1CC2(C1)[C@@H](c1ccccc1)[C@@H](CO)N2Cc1ccc(F)cc1	1.5	2.5
48	CC(C)OC(=O)N(C)C[C@H]1OCc2ccccc2-c2c(n(C)c3ccccc23)C(=O)N([C@@H](C)CO)C[C@H]1C	-18.2	-24.7
49	CCC(=O)N1C[C@@H](C)[C@H](OC)CN(C)C(=O)c2ccc(NC(=O)COC)cc2OC[C@H]1C	3.1	0.1
50	C[C@H](CO)N1C[C@H](C)[C@H](CN(C)Cc2ccc(Oc3ccccc3)cc2)Oc2cc(Br)ccc2S1(=O)=O	-21.2	-28.6
51	CC(C)CC#Cc1ccc([C@@H]2[C@@H](CO)N3CCCCN(S(=O)(=O)Cc4ccccc4)C[C@@H]23)cc1	-27.1	-19.5
52	CC(C)C#Cc1ccc2c(c1)O[C@H](CN(C)C(=O)c1ccccc1)[C@@H](C)CN([C@@H](C)CO)S2(=O)=O	-22.2	-27.6
53	C[C@@H]1CCCCO[C@H](CN(C)C(=O)c2ccncc2)[C@@H](C)CN([C@@H](C)CO)C(=O)c2cc(NS(C)(=O)=O)ccc2O1	-1.6	1.1
54	COc1ccc(S(=O)(=O)N2CCC3(CC2)CN(C(=O)CN(C)C)[C@@H](CO)c2c3c3ccc(OC)cc3n2C)cc1	·	?
55	CS(=O)(=O)N1CC(=O)N2[C@H](CO)[C@@H](c3ccc(C#CCc4ccccc4)cc3)[C@H]2C1	-3.3	11.6
56	C[C@@H]1CN([C@@H](C)CO)C(=O)Cc2cc(NS(=O)(=O)c3ccc(Cl)cc3)ccc2O[C@H]1CN(C)S(C)(=O)=O	11.8	9.1
57	C[C@H](NC(=O)C[C@H]1C=C[C@H](NC(=O)c2cccnc2)[C@H](CO)O1)c1ccccc1	-1.5	-0.8
58	C[C@@H]1CN([C@H](C)CO)C(=O)c2cc(NS(=O)(=O)c3cccs3)ccc2O[C@@H](C)CCCCO[C@H]1CN(C)Cc1ccncc1	4.5	4.0
59	C[C@H](NC(=O)C[C@H]1CC[C@@H]2[C@@H](COc3ccc(NC(=O)C4CCOCC4)cc3C(=O)N2C)O1)c1ccccc1	13.2	13.4
60	O=C(C[C@@H]1CC[C@@H](NC(=O)c2ccncc2)[C@H](CO)O1)NCc1ccncn1	-3.9	-3.1

The listing continues.
cpd	SMILES	Vaccinia inh Venus	Vaccinia inh
61	C[C@@H]1CN([C@H](C)CO)C(=O)c2cccc(NC(=O)Nc3ccccc3)c2O[C@H]1CN(C)C(=O)Nc1ccc2c(c1)OCO2	24.9	25.3
62	C[C@@H]1CN([C@H](C)CO)C(=O)c2cc(NC(=O)c3ccncc3)ccc2O[C@@H]1CN(C)CC1CCCCC1	10.8	31.0
63	C[C@H]1CN([C@@H](C)CO)C(=O)c2cccc(N(C)C)c2O[C@@H]1CN(C)Cc1ccccc1	6.4	8.0
64	C[C@@H]1CN([C@@H](C)CO)C(=O)c2cc(NS(=O)(=O)c3cn(C)cn3)ccc2O[C@@H](C)CCCCO[C@H]1CN(C)C(=O)Nc1ccc2c(c1)OCO2	14.2	22.5
65	C[C@H]1CN([C@@H](C)CO)C(=O)c2cc(N(C)C)ccc2O[C@@H]1CN(C)Cc1ccc(-c2ccccc2)cc1	-22.1	-26.0
66	COc1ccc(C#Cc2ccc([C@H]3[C@H](CO)N4CCCCN(C(=O)Cc5cccnc5)C[C@@H]34)cc2)cc1	·	?
67	COc1ccc2c3c([nH]c2c1)[C@@H](CO)N(C(=O)NC(C)C)CC31CN(C(=O)NC(C)C)C1	10.4	11.3
68	COc1ccc(CN(C)C[C@H]2OCCCC[C@H](C)Oc3ccc(NC(=O)NC4CCCCC4)cc3C(=O)N([C@H](C)CO)C[C@H]2C)cc1	·	?
69	CCCC(=O)N1CCC2(CC1)CN(Cc1ccccc1F)[C@@H](CO)c1c2c2ccc(OC)cc2n1C	-4.5	-5.7
70	CCCN(C)C[C@@H]1OCCCC[C@H](C)Oc2ccc(NC(=O)CCCN(C)C)cc2C(=O)N([C@@H](C)CO)C[C@@H]1C	1.7	-1.5
71	C[C@H](CO)N1C[C@H](C)[C@@H](CN(C)C(=O)CN(C)C)Oc2ncc(C#CC(C)(C)O)cc2C1=O	9.7	13.8
72	CNC[C@@H]1OCCCC[C@@H](C)Oc2ccc(N)cc2C(=O)N([C@H](C)CO)C[C@H]1C	-14.4	-7.6
73	CN(C)CC(=O)N1[C@H](C#N)[C@H](c2ccc(-c3cccc(C(=O)N(C)C)c3)cc2)[C@@H]1CO	1.0	12.7
74	O=C(Nc1ccccc1)N1CCCCN2[C@@H](CO)[C@H](c3ccc(Br)cc3)[C@@H]2C1	1.0	-7.4
75	O=C(C[C@@H]1C[C@H]2c3cc(NC(=O)C4CCOCC4)ccc3O[C@H]2[C@@H](CO)O1)NCc1cccnc1	5.3	3.6

Four entries picked at random from the list so far:
cpd	SMILES	Vaccinia inh Venus	Vaccinia inh
66	COc1ccc(C#Cc2ccc([C@H]3[C@H](CO)N4CCCCN(C(=O)Cc5cccnc5)C[C@@H]34)cc2)cc1	·	?
61	C[C@@H]1CN([C@H](C)CO)C(=O)c2cccc(NC(=O)Nc3ccccc3)c2O[C@H]1CN(C)C(=O)Nc1ccc2c(c1)OCO2	24.9	25.3
70	CCCN(C)C[C@@H]1OCCCC[C@H](C)Oc2ccc(NC(=O)CCCN(C)C)cc2C(=O)N([C@@H](C)CO)C[C@@H]1C	1.7	-1.5
75	O=C(C[C@@H]1C[C@H]2c3cc(NC(=O)C4CCOCC4)ccc3O[C@H]2[C@@H](CO)O1)NCc1cccnc1	5.3	3.6

(listing goes on)
cpd	SMILES	Vaccinia inh Venus	Vaccinia inh
76	O=C(C[C@H]1C=C[C@H](NC(=O)C2CCC2)[C@@H](CO)O1)NCCCN1CCOCC1	-5.1	-3.4
77	C[C@@H]1CN([C@H](C)CO)C(=O)c2cc(NC(=O)Cc3ccccc3)ccc2O[C@@H](C)CCCCO[C@H]1CN(C)C(=O)Cc1ccccc1	-17.0	-23.7
78	C[C@@H]1CN([C@H](C)CO)C(=O)Cc2cc(NC(=O)Nc3ccc(F)cc3)ccc2O[C@H]1CN(C)S(=O)(=O)c1ccc(F)cc1	8.6	14.4
79	CO[C@@H](CN(C)S(=O)(=O)c1ccc(F)cc1)[C@H](C)CN(Cc1ccccc1Cl)[C@@H](C)CO	9.8	-4.5

An excerpt; the hit share may differ from the screen's.
